Screening results: PubChem, ICCB-Longwood Screening Facility, Harvard Medical School
VACV E9 pol inh: vaccinia E9 polymerase processive synthesis inhibitors, primary screen, biochemical, absorbance; in vitro processive DNA synthesis, absorbance read-out; hits give low values; some inactives read as strong as hits; normalized absorbance, % (no concentration beside the values); hit rate 0.94% among 46,000;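 active = replicate mean up to 90% and picked by the depositor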;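 also: 100% = median of the test wells of a plate; 100 nL library stock went into each well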
Numbers without * were called inactive.

N#CC(C(=S)Nc1ccccc1)c1nc2ccccc2[nH]1 (stereo not given) was read as VACV E9 pol inh 100.3.
Screening O=C(CSCn1nnc2c(=O)[nH]c(Cc3ccc(F)cc3)nc21)Nc1ccc(F)cc1 returned VACV E9 pol inh 98.4.
Screening O=C(COC(=O)C12CC3CC(CC(Br)(C3)C1)C2)N1CCCCC1 returned VACV E9 pol inh 102.3.
`Cn1cccc1/C=N/n1c(COc2ccccc2)n[nH]c1=S` gave VACV E9 pol inh 100.2.
Screening C=CCN1Cc2ccc3ccccc3c2-c2c(ccc3ccccc23)C1 returned VACV E9 pol inh 87.7.
Screening CCc1ccc(NC(=O)CSc2nc3c(c(=O)n2CC)SC(C)C3)cc1 (stereo not given) returned VACV E9 pol inh 101.4.
c1ccc(CN2CCC(Nc3ncnc4sccc34)CC2)cc1 was read as VACV E9 pol inh 108.4.
`CC(C)=C(C#N)c1nc2ccccc2[nH]1` gave VACV E9 pol inh 100.5.
Screening Cc1ccc(N2CCN(C(=O)c3nc(-c4ccncc4)no3)CC2)c(C)c1 returned VACV E9 pol inh 107.2.
`O=P(O)(Nc1ccccc1)Nc1ccccc1` gave VACV E9 pol inh 100.5.
Screening CC1CN(S(=O)(=O)CC23CCC(CC2=O)C3(C)C)CC(C)O1 (stereo not given) returned VACV E9 pol inh 95.6.
For CCn1c(C)c(CCC(=O)N2CCCC2)c(=O)n2nc(-c3ccccc3OC)cc12 the results were VACV E9 pol inh 99.6.
Screening CCCOc1ccc(Cc2nc(N)c(NC(C)=O)c(=O)[nH]2)cc1 returned VACV E9 pol inh 103.6.
For COc1ccc(NS(=O)(=O)c2cc(Br)cnc2N)cc1 the results were VACV E9 pol inh 102.6.
CC(NC(=O)c1cccc(N)c1)c1ccccc1 (stereo not given) was read as VACV E9 pol inh 100.1.

The last 4 compounds of the part before lead into the next:
For CCn1c(C)c(CCC(=O)N2CCCC2)c(=O)n2nc(-c3ccccc3OC)cc12 the results were VACV E9 pol inh 99.6.
Screening CCCOc1ccc(Cc2nc(N)c(NC(C)=O)c(=O)[nH]2)cc1 returned VACV E9 pol inh 103.6.
For COc1ccc(NS(=O)(=O)c2cc(Br)cnc2N)cc1 the results were VACV E9 pol inh 102.6.
CC(NC(=O)c1cccc(N)c1)c1ccccc1 (stereo not given) was read as VACV E9 pol inh 100.1.
For c1csc(-c2noc(CNC3Cc4ccccc4C3)n2)c1 the results were VACV E9 pol inh 78.5.
`Cn1c(=NC(=O)CSCC(=O)N2CCCc3ccccc32)sc2ccccc21` gave VACV E9 pol inh 104.0.
CCOC(=O)C1CCCN(C(=S)Nc2ccc(OCC)cc2)C1 (stereo not given) was read as VACV E9 pol inh 101.1.
For Cc1ccc(C2=Nn3c(C)nnc3SC2)cc1 the results were VACV E9 pol inh 100.4.
`O=C(NC1CCCC1)C1CCN(S(=O)(=O)c2cccc3nonc23)CC1` gave VACV E9 pol inh 102.2.
CCC(=O)N1c2ccc(S(=O)(=O)NCc3ccccc3)cc2CC1C (stereo not given) was read as VACV E9 pol inh 89.8.
For NC(=O)c1ccc(Oc2ccc(C(N)=O)cc2)cc1 the results were VACV E9 pol inh 100.5.
Screening Cc1cc2cc(CNC(=O)CC(C)C)ccc2[nH]1 returned VACV E9 pol inh 97.1.
`COc1ccccc1NC(=O)c1cccn(OCc2ccccc2)c1=O` gave VACV E9 pol inh 99.5.
Screening CN(C)c1ccc(C(=O)OCC(=O)c2cccc(C(F)(F)F)c2)cc1 returned VACV E9 pol inh 100.7.
CC(C)C(C(=O)Nc1nccs1)c1ccc(Cl)cc1 (stereo not given) was read as VACV E9 pol inh 89.0.
COC(=O)Nc1c(Cl)nsc1S(=O)(=O)Cc1ccccc1 was read as VACV E9 pol inh 100.7.
For COc1ccc(C(=O)Nc2nnc(-c3ccccc3)o2)cc1OC the results were VACV E9 pol inh 93.1.
O=C1CC(c2ccccc2)c2c(ccc3ccccc23)N1 (stereo not given) was read as VACV E9 pol inh 83.5*.
For COC(=O)C(c1ccccc1)C1(O)CC(C)N(C)CC1C (stereo not given) the results were VACV E9 pol inh 99.4.
COc1cc(-c2cc(NC(=O)Cc3noc4ccc(C)cc34)on2)cc(OC)c1OC was read as VACV E9 pol inh 103.7.
Screening O=S(=O)(c1ccc(-n2cccn2)cc1)N1CCCC2CCCCC21 (stereo not given) returned VACV E9 pol inh 89.5.
`CN(C)c1ccc(C2NCC(CSc3nc4ccccc4s3)O2)cc1` (stereo not given) gave VACV E9 pol inh 99.3.
`Cc1cccc(N2CCN(C(=O)CCn3c(=S)[nH]c4cc5c(cc4c3=O)OCO5)CC2)c1C` gave VACV E9 pol inh 99.1.
`COc1ccc(OC)c(S(=O)(=O)N2CCCc3ccccc32)c1` gave VACV E9 pol inh 102.8.
NC(=O)SCC(=O)Nc1ccc(Cl)cc1Cl was read as VACV E9 pol inh 88.0.
`Cc1nn(C)c2sc(C(=O)N(Cc3ccccn3)Cc3ccccn3)cc12` gave VACV E9 pol inh 99.4.
O=C(Nc1nc2ccccc2n1Cc1ccc(Cl)cc1)C1CCCCC1 was read as VACV E9 pol inh 99.8.
`NC(Cc1ccc(F)cc1)C(=O)O` (stereo not given) gave VACV E9 pol inh 100.3.
For CCOC(=O)c1sc(NC(=O)c2ccccc2)c(SC#N)c1C the results were VACV E9 pol inh 100.4.
COc1ccc(N(C(=O)c2cc(C)cc(C)c2)C2C=CS(=O)(=O)C2)c(OC)c1 (stereo not given) was read as VACV E9 pol inh 99.7.
For O=C(COc1ccccc1)N1CCCC2CCCCC21 (stereo not given) the results were VACV E9 pol inh 100.4.
`O=C(CSc1ccc(-c2ccncc2)nn1)NC1CCCC1` gave VACV E9 pol inh 102.2.
For Cc1ccc(C)n1-n1cnc2sc3c(c2c1=O)CCC3 the results were VACV E9 pol inh 101.0.
Screening CCOc1ccc(NC(=S)NC(c2ccccc2)c2ccccc2)cc1 returned VACV E9 pol inh 98.8.
For CC(C)N(C(=S)Nc1ccccc1Cl)C(C)c1ccccn1 (stereo not given) the results were VACV E9 pol inh 91.1.
Screening COc1ccc(-c2cc(C(F)(F)F)nc(SCC(=O)Nc3cn(C)nc3C)n2)cc1OC returned VACV E9 pol inh 101.0.
Screening Cc1nc(-c2ccccc2)sc1-c1nnc(-c2cccc3ccccc23)o1 returned VACV E9 pol inh 109.7.
CN(CCCn1cnc2c([nH]c3ccccc32)c1=O)C1CCCCC1 was read as VACV E9 pol inh 92.4.
`CCCCN1C(=O)C2ON(c3ccccc3C)C(c3ccco3)C2C1=O` (stereo not given) gave VACV E9 pol inh 99.9.
CC[n+]1oc(-c2ccccc2)cc1C was read as VACV E9 pol inh 100.3.
Cc1ccc(S(=O)(=O)/C(C#N)=C/c2ccc(-c3ccc(Cl)cc3)o2)cc1 was read as VACV E9 pol inh 99.9.
N#CCc1cn(-c2ccccc2)nc1-c1ccccc1 was read as VACV E9 pol inh 101.6.
`O=C(O)C1Nc2ccccc2C2C=CCC12` (stereo not given) gave VACV E9 pol inh 9.8*.
For CCCN(CCC)c1ncnc2ccc(Br)cc12 the results were VACV E9 pol inh 100.1.
For CCOC(=O)N1CCc2c(sc3ncn(Cc4ccc(Cl)cc4)c(=O)c23)C1 the results were VACV E9 pol inh 105.2.
For O=C(Cn1c(CO)nc2ccccc21)Nc1ccccc1 the results were VACV E9 pol inh 98.4.
`CCOC(=O)Cn1c(-c2ccc(Cl)cc2)csc1=Nc1ccc(F)cc1` gave VACV E9 pol inh 100.3.
Screening Cc1ccc(S(=O)(=O)c2nc(N3CCOCC3)sc2Cl)cc1 returned VACV E9 pol inh 97.3.
Screening Cc1oc(-c2ccc(C(=O)O)cc2)nc1COc1ccccc1 returned VACV E9 pol inh 103.0.

Among those listed so far, these have bromine:
Screening O=C(COC(=O)C12CC3CC(CC(Br)(C3)C1)C2)N1CCCCC1 returned VACV E9 pol inh 102.3.
For COc1ccc(NS(=O)(=O)c2cc(Br)cnc2N)cc1 the results were VACV E9 pol inh 102.6.
For CCCN(CCC)c1ncnc2ccc(Br)cc12 the results were VACV E9 pol inh 100.1.

(listing goes on)
`N#Cc1c(NC(=O)c2cc(-c3cccs3)on2)sc2c1CCC2` gave VACV E9 pol inh 100.2.
`N#CCC(c1ccccc1)C(C#N)c1ccc(Br)cc1` (stereo not given) gave VACV E9 pol inh 100.3.
Screening CC1CCCC(NC(=O)CSc2ncnc3ccccc23)C1C (stereo not given) returned VACV E9 pol inh 102.0.
`O=C(Cc1ccccc1)N1CCN=C1SCc1ccccc1` gave VACV E9 pol inh 103.4.
O=C(Cc1cn2ccsc2n1)Nc1ccccc1 was read as VACV E9 pol inh 101.2.
CC(C)S(=O)(=O)c1cscc1NC(=O)Nc1ccccc1 was read as VACV E9 pol inh 108.2.
O=C(NCCc1ccccc1)c1cc(-c2ccco2)on1 was read as VACV E9 pol inh 101.0.
`O=C(NCc1cccs1)/C(=C/c1cccs1)c1ccccc1` gave VACV E9 pol inh 92.5.
For COc1ccc(N(C(C)=O)C2C=CS(=O)(=O)C2)cc1 (stereo not given) the results were VACV E9 pol inh 99.8.
`Cc1nc(-c2ccc(Cl)cc2)nc(OC(=O)N(C)C)c1C` gave VACV E9 pol inh 113.8.
Brc1ccc2[nH]c3nc(SCCN4CCOCC4)nnc3c2c1 was read as VACV E9 pol inh 99.6.
Cc1c(OCc2ccc(Cl)cc2Cl)ccc2c1OC(C)(C)CC2=O was read as VACV E9 pol inh 111.5.
`CCOc1ccc(CNc2ccc(O)cc2)cc1` gave VACV E9 pol inh 100.1.
Screening Cc1cc(C(=O)NC(C)C)n(-c2ccccc2)n1 returned VACV E9 pol inh 89.8.
For Cc1cc(CN2CCS(=O)(=O)CC2)c(C(F)(F)F)o1 the results were VACV E9 pol inh 90.5.
`C=CCc1ccccc1OCC(O)CNC(C)C` (stereo not given) gave VACV E9 pol inh 90.0.
Fc1ccc(-n2cc(-c3ccc4c(c3)OCO4)[nH]c2=S)cc1 was read as VACV E9 pol inh 100.1.
O=C1c2ccccc2-c2onc3c(Br)cc(N4CCCCC4)c1c23 was read as VACV E9 pol inh 73.3*.
For Cc1ccc(NC(=O)COc2ccccc2O)cc1C the results were VACV E9 pol inh 103.0.
For COc1ccc(O)c(C=Nc2ccccc2)c1 the results were VACV E9 pol inh 104.3.
`COc1ccc(-c2[nH]ncc2C(=O)O)cc1` gave VACV E9 pol inh 84.0.
For O=C(Sc1ccc(Cl)cc1Cl)c1csc(-c2ccc3nonc3c2)n1 the results were VACV E9 pol inh 97.7.
COc1ccc2c(c1OC)C(=O)OC2Nc1nc2ccc(OC(F)(F)F)cc2s1 (stereo not given) was read as VACV E9 pol inh 98.8.
`O=C1CCCc2oc3ccc(NS(=O)(=O)c4cccs4)cc3c21` gave VACV E9 pol inh 97.2.
Screening CCCCc1cc(C)c2[nH]cc(C(=O)O)c(=O)c2c1 returned VACV E9 pol inh 103.9.
COc1ccc(C2CC(c3ccc(C)cc3)=NN2S(=O)(=O)c2ccc(C)cc2)cc1 (stereo not given) was read as VACV E9 pol inh 99.8.
CC(=O)N1CCN(C(=O)c2cccc(Oc3ccccc3)c2)CC1 was read as VACV E9 pol inh 91.6.
For O=C(Cc1ccccc1Cl)NC1(O)C(=O)c2ccccc2C1=O the results were VACV E9 pol inh 98.1.
CC(Oc1cccc(C(F)(F)F)c1)c1ccnc(N)n1 (stereo not given) was read as VACV E9 pol inh 103.8.
For CCCCn1c(CCCNC(=O)CC)nc2ccccc21 the results were VACV E9 pol inh 98.7.

Quoted at random: two entries already listed.
Screening CCCCc1cc(C)c2[nH]cc(C(=O)O)c(=O)c2c1 returned VACV E9 pol inh 103.9.
`C=CCc1ccccc1OCC(O)CNC(C)C` (stereo not given) gave VACV E9 pol inh 90.0.

Returning to the listing, starting 5 compounds before the break.
COc1ccc(C2CC(c3ccc(C)cc3)=NN2S(=O)(=O)c2ccc(C)cc2)cc1 (stereo not given) was read as VACV E9 pol inh 99.8.
CC(=O)N1CCN(C(=O)c2cccc(Oc3ccccc3)c2)CC1 was read as VACV E9 pol inh 91.6.
For O=C(Cc1ccccc1Cl)NC1(O)C(=O)c2ccccc2C1=O the results were VACV E9 pol inh 98.1.
CC(Oc1cccc(C(F)(F)F)c1)c1ccnc(N)n1 (stereo not given) was read as VACV E9 pol inh 103.8.
For CCCCn1c(CCCNC(=O)CC)nc2ccccc21 the results were VACV E9 pol inh 98.7.
CCc1nc2ccccc2n1C(=O)CCCC(=O)O was read as VACV E9 pol inh 101.9.
Screening COc1ccc(C2CC(C(F)(F)F)n3ncc(C(=O)NCC4CCCO4)c3N2)cc1OC (stereo not given) returned VACV E9 pol inh 102.8.
`Cc1[nH]c2ccccc2c1C(c1ccccn1)N1CCC(C)CC1` (stereo not given) gave VACV E9 pol inh 100.2.
`O=S(=O)(NC1CCCC1)c1cccc2cccnc12` gave VACV E9 pol inh 94.8.
`CC1CN(C(=O)N2CCC(C(=O)O)CC2)c2cc(Cl)ccc2O1` (stereo not given) gave VACV E9 pol inh 67.7*.
C/C(Cc1ccccc1OC(=O)c1ccccc1)=N/O was read as VACV E9 pol inh 103.2.
`Cc1nc2cc(NC(=O)c3ccc(Br)s3)ccc2s1` gave VACV E9 pol inh 104.2.
For CCCN(CCC)S(=O)(=O)c1ccc(C(=O)Nc2cc(C(F)(F)F)cc(C(F)(F)F)c2)cc1 the results were VACV E9 pol inh 125.9.
For Cc1nc2ccccc2cc1C(=O)NCc1ccco1 the results were VACV E9 pol inh 121.3.
`Clc1ccc(-c2csc(COc3ccc4nonc4c3)n2)cc1` gave VACV E9 pol inh 96.7.
Screening O=C1Cn2c(nc3ccccc32)N1c1ccccc1F returned VACV E9 pol inh 101.5.
`COc1cc(-c2onc3ccc(Cl)cc23)cc(OC)c1OC` gave VACV E9 pol inh 99.2.
CCCCC[C@H](O)/C=C/[C@H]1C(=O)C[C@H](O)[C@@H]1C/C=C\CCCC(=O)O was read as VACV E9 pol inh 100.1.
For NC(=O)C1CCN(CC(O)(c2ccccc2)c2ccccc2)CC1 the results were VACV E9 pol inh 91.9.
For CC(C)(C)c1ccc(OCC(=O)NC(c2ccccc2)c2ccccc2)cc1 the results were VACV E9 pol inh 100.6.
For O=C1NC(=O)N(Cc2ccccc2)C(=O)/C1=C\c1ccccc1 the results were VACV E9 pol inh 101.2.
`Cn1cc(NC(=O)Nc2ccc(C(F)(F)F)cc2)c(C(F)(F)F)n1` gave VACV E9 pol inh 98.7.
`O=C(NO)C12CC3CC(CC(C3)C1)C2` gave VACV E9 pol inh 104.9.

The list is partial, so the mix of outcomes need not match the whole.
